# Compound activity deposited in PubChem BioAssay by National Center for Advancing Translational Sciences (NCATS).
# Vaccinia mCherry – inhibitors of vaccinia virus infection (mCherry reporter signal); Vaccinia virus mCherry reporter infection, fluorescence; about a quarter of the inactives have no number; Potency, µM (series often up to 36.5 µM), inactives show at the top dose activity change, negative = inhibition, usual class: inhibitors; 310,000 compounds, 0.63% hits; active = well fitted inhibition curve with a large enough effect; inconclusive = small, poorly fitted or top-dose-only effect; inactive = no such curve, though single readings can be large or run the other way; tested in A549 cells; further: nearly all actives have a fitted effect of over 35% in size; inactives centre near -10
# VACV Venus inh – vaccinia inhibition (Venus reporter); 330,000 compounds, 0.46% hits; Vaccinia virus Venus reporter expression, fluorescence; Potency, µM (titrated, usually from 36.5 µM), for the others: top-dose activity change, negative = inhibition, actives largely listed as inhibitors; active means well fitted inhibition curve with a large enough effect; inconclusive means small, poorly fitted or top-dose-only effect; inactive means no such curve, though single readings can be large or run the other way; tested in A549 cells; further: nearly all actives have a fitted effect of over 30% in size; inactives centre near -10
# * hit, by the source's call; i = inactive; ? = inconclusive; nt = no result given; [ ] = another dose, or the depositor's remark. On the % scale 0 is the no-effect control and ±100 the full control effect; potency means the concentration at half of the fitted maximal effect.
# Sequence of screens: Vaccinia mCherry | VACV Venus inh
CCOC(=O)c1c(NC(=O)c2cc3nc(-c4ccccc4)cc(C(F)(F)F)n3n2)sc2c1CCC(C)C2 (stereo not given)
    -14.5% | -15.2%
Cn1c(SCC(=O)N2CCCc3ccccc32)nnc1-c1c[nH]c2ccccc12
    nt | -25.7%
O=C(O)C[C@@H](O)C(=O)O
    1.0% | 8.9%
CCOC(=O)[C@]12CCCC=C1N(Cc1ccco1)C(=O)[C@H](CC(=O)N1CCSCC1)C2
    -2.6% | -6.8%
O=C(COC(=O)c1ccc(S(=O)(=O)N2CCCC2)cc1)NCc1ccc(F)cc1
    -3.1% | -0.4%
CCSCC1COC(c2cccn2Cc2ccc(C)cc2)=N1 (stereo not given)
    -12.1% | 2.1%
COc1ccc(Br)c(Cn2c(C)c(C(=O)NCc3cccc([N+](=O)[O-])c3)sc2=O)c1
    i | -5.1%
CC(=O)Nc1cc(-c2nc3ccccc3s2)ccc1C
    -6.4% | -8.8%
CC(C)c1ccc(/C=N/NC(=O)CCNC(=O)c2ccccc2)cc1
    -14.5% | 11.0%
COc1ccc(CNc2nc(-c3ccc(C(=O)N(C)C)cc3)nc3ccccc23)c(OC)c1
    -4.5% | 11.1%
COc1ccc(OC)c(CNC(=O)C2CCCCN2S(=O)(=O)c2ccc(F)cc2)c1 (stereo not given)
    -10.1% | -2.7%
COc1ccc(C2CC(c3ccc(Cl)cc3Cl)Nc3nc(N)nn32)cc1 (stereo not given)
    -17.6% | -12.5%
CCN(c1cccc(C)c1)S(=O)(=O)c1nnc(NC(=O)c2cccs2)s1
    -3.0% | -4.9%
CC1CC(C)(C)NC(=S)N1CC(=O)NCc1ccc(Cl)cc1 (stereo not given)
    i | -10.1%
Cc1ccc(CNC(=O)C2CC(c3ccccc3C(F)(F)F)=NO2)cc1 (stereo not given)
    i | -10.0%
O=C(Cc1cccs1)Nc1ccc(S(=O)(=O)N2CCCCC2)cc1
    nt | -15.9%
CCN(CC)C(=S)NC(=O)c1cccnc1
    i | 0.4%
COc1ccc(NC(=O)CSc2cn[nH]n2)c(OC)c1
    -18.0% | 2.7%
C=CCNc1nc(C(=O)OCC(=O)c2ccc(Cl)cc2)cs1
    -13.5% | 3.7%
COc1ccc(NC(=O)Cc2ccc(C)c(C)c2)cc1Cl
    -2.9% | -5.3%
CC(C)CC(=O)C1CCCN(C(=O)c2ccc3oc(Cc4ccccc4)nc3c2)C1 (stereo not given)
    -14.1% | -8.4%
O=C(NNC(=O)c1cc(-c2ccccc2Cl)nc2ccccc12)c1csc(N2CCOCC2)n1
    i | -19.6%
CC1(CC(=O)Nc2ccccc2)NC(=S)N(c2ccccc2)N1 (stereo not given)
    -0.8% | 3.6%
COc1ccc(NC(=O)c2ccccc2-c2ccccc2)c(C)c1
    -2.3% | -18.6%
O=C(c1ccc(Cl)cc1)c1ccc(OCC(O)CN2CCOCC2)cc1 (stereo not given)
    nt | ?
O=S(=O)(c1cccnc1)N1CCCC(Nc2ccc(F)c(F)c2)C1 (stereo not given)
    ? | -7.4%
Cc1ccc(-n2ncc(C(=O)NCc3ccc4c(c3)OCO4)c2C2CCN(C(=O)OC(C)(C)C)CC2)cc1C
    -15.6% | -16.5%
CCOc1ccccc1NC(=O)C(=O)NCCc1sc2nc(-c3ccc(OC)cc3)nn2c1C
    -19.7% | -18.3%
CN1OC[C@@H]2CN(C(=O)C(C)(C)C)[C@H](c3ccc(-c4cc5ccccc5o4)cc3)C[C@@H]21
    -5.8% | -12.4%
Nc1ccc(C2(c3ccc(N)cc3)c3ccccc3C(=O)c3ccccc32)cc1
    -28.2% | -11.0%
COc1ccc(CN(C)C(=O)CCNS(=O)(=O)c2ccccc2)c(OC)c1
    -13.4% | -14.1%
CC(Nc1ncnc2sccc12)c1ccccc1 (stereo not given)
    -21.3% | -11.6%
O=C1C(=C(O)c2ccccc2)C(=O)c2ccccc21
    -0.7% | 39.0%[activator]
N#Cc1cccc(NC(=O)N2CCC(c3nc4c(nnn4Cc4cccc(Cl)c4)c(=O)[nH]3)CC2)c1
    -16.5% | -12.2%
Clc1ccc(-c2noc(CN3CCCC3)n2)cc1
    -4.9% | -23.3%
COc1ccccc1CCn1cnc(Cc2ccccc2)c1C(C)C
    -26.4% | -22.1%
CCCc1cc(=O)oc2c3c(cc(OCC(=O)N[C@@H](CSC)C(=O)O)c12)OC(C)(C)CC3
    i | 0.9%
CCOC(=O)/C=C1\CN(C(C)c2ccccc2)S(=O)(=O)c2ccccc21 (stereo not given)
    -6.5% | -8.9%
CN(C)C(=O)CSCc1c(Cl)cccc1Cl
    nt | ?
CC(C)=CCCC(C)N(C=O)C(C)CCC=C(C)C (stereo not given)
    nt | -15.8%
Cc1ccccc1-c1nnc(SCC(=O)NCc2ccc3c(c2)OCO3)n1C
    nt | -16.6%
CCOCCCNC(=O)Cn1nc(C)n2c(cc3cc(C)ccc32)c1=O
    -7.0% | -8.3%
CCOC(=O)C1(Cc2ccccc2C(F)(F)F)CCN(CCCn2cccn2)CC1
    -12.3% | -8.3%
Cc1c(C(=O)NCC(c2ccco2)N2CCCC2)sc2ccccc12 (stereo not given)
    -5.4% | -8.5%
Cc1ccc(Cn2c(SCC(C)C)nc3c2c(=O)[nH]c(=O)n3C)cc1
    nt | 14.6%
CCOc1ccc(Nc2cc(C)nc3ccc(C)cc23)cc1
    -23.0% | -27.3%
CCOC(=O)c1ccc(N2C(=O)C3CCOc4ccccc4C32)cc1 (stereo not given)
    i | ?
CNc1ccc(Oc2nc([N+](=O)[O-])nn2C)cc1
    i | -4.8%
COc1ccccc1CNC(=O)CCC1N=C2c3ccccc3N=C(SCC(=O)NCC3CCCO3)N2C1=O (stereo not given)
    i | -13.5%
CC(=O)Nc1ccc(OCCOc2ccc([N+](=O)[O-])cc2)cc1
    i | -15.3%

# (cont.)
# Sequence of screens: Vaccinia mCherry | VACV Venus inh
c1ccc(CN2CCN(CCCNc3ccc4nnc(-c5ccccc5)n4n3)CC2)cc1
    i | ?
CC(=O)c1ccc(NC(=O)/C=C/c2ccc(C)cc2)cc1
    i | -11.2%
COC(=O)c1c(NC(=O)/C(C#N)=C/c2ccc(OC)cc2)sc2c1C(C(=O)OC)CC2 (stereo not given)
    -10.8% | -6.2%
COc1cc(NC(=O)COC(C)=O)cc(OC)c1OC
    -7.3% | -3.9%
Cc1csc2ncc(C(=O)NCc3ccccn3)c(=O)n12
    -11.6% | -2.5%
CN1CCN(S(=O)(=O)c2ccc(NC(=S)NC(=O)c3ccccc3)cc2)CC1
    nt | -8.6%
CCCn1ccc2c(OCC(=O)Nc3ccc(C(F)(F)F)cc3)cccc2c1=O
    ? | ?
C=CCOC(=O)C1=C[C@H](c2cn(C(C)=O)c3ccccc23)C[C@H](OCc2ccc(CO)cc2)O1
    -4.9% | -6.6%
COC(=O)c1ccccc1-c1cc(C)cc2c1OC(CNC(=O)c1occc1C)C2 (stereo not given)
    -4.4% | -13.2%
CCOC(=O)c1sc(Nc2nc3cc4c(cc3s2)OCO4)cc1C
    i | -19.1%
CCOC(=O)c1c(NC(=O)c2cc(-c3ccccc3OC)on2)sc(C)c1C
    -1.7% | -10.9%
Cc1ccc(-c2ccc(=O)n(CC(=O)Nc3ccc(C)cc3Cl)n2)cc1
    -11.2% | -2.8%
CCCCCCCCN1C(=O)[C@H](CC(=O)N2CCN(C(=O)c3ccco3)CC2)C[C@@]2(C(=O)OC)CCCCC=C12
    i | -8.1%
Cc1cc(C)c(S(=O)(=O)N/N=C/c2ccc3c(c2)OCO3)c(C)c1
    -23.7% | -20.5%
C/C=C\C(=O)Nc1cccc(C2=NOC3(C2)C[C@@H](C(N)=O)N(C(=O)C2(C)CC2)C3)c1 (stereo not given in full)
    -13.3% | -0.6%
O=C(CCc1nc2ccccc2[nH]1)NC1CCCCC1
    i | -7.1%
COc1cc2c(=O)c(S(=O)(=O)c3ccc(C(C)C)cc3)cn(Cc3ccccc3C)c2cc1OC
    -28.6% | -19.3%
O=C(Nc1cccc(C(F)(F)F)c1)c1cc[n+]([O-])cc1
    -4.9% | 4.9%
CCOC(=O)CN1C(=O)N[C@@H](c2ccco2)C(C(C)=O)=C1C
    i | -8.9%
C=CCn1c(=N)n(CC(=O)c2cccc([N+](=O)[O-])c2)c2ccccc21
    -13.4% | -2.2%

# Ordered by SMILES length (rising): part of the list above.
# Sequence of screens: Vaccinia mCherry | VACV Venus inh
O=C(CCc1nc2ccccc2[nH]1)NC1CCCCC1
    i | -7.1%
Cc1cc(C)c(S(=O)(=O)N/N=C/c2ccc3c(c2)OCO3)c(C)c1
    -23.7% | -20.5%
CCCCCCCCN1C(=O)[C@H](CC(=O)N2CCN(C(=O)c3ccco3)CC2)C[C@@]2(C(=O)OC)CCCCC=C12
    i | -8.1%

# The list goes on.
# Sequence of screens: Vaccinia mCherry | VACV Venus inh
Cc1cc(Cl)c(OCCCn2cncn2)c(Br)c1
    -27.6% | -21.3%
Cc1cccc(N=Nc2cn[nH]c2-c2ccco2)c1
    -4.1% | -13.2%
COc1ccc(CNC(=S)Nc2cccc(F)c2)cc1
    -2.1% | -15.7%
O=S(=O)(Nc1ccc(Cl)c(C(F)(F)F)c1)c1cnc[nH]1
    -20.7% | -13.3%
CCOc1ccccc1CNC(=O)C1=C(C)C(=O)OC12CCN(C(C)=O)CC2
    -12.2% | -8.4%
COc1ccc(-n2cnnc2SCC(=O)Nc2cc(C)on2)cc1
    i | -13.4%
O=S1(=O)CC(O)C(Nc2ccc(Cl)cc2)C1 (stereo not given)
    nt | -13.5%
O=C(Nc1cccc2ncccc12)c1cccnc1
    5.4% | -2.7%
COc1cc(/C=C(/NC(C)=O)C(=O)O)cc(Cl)c1OCc1ccc(Br)cc1
    i | 9.7%
Cn1c(C(=O)NCc2ccc(Cl)cc2)cc2c(=O)n(C)c3ccccc3c21
    4.7% | 6.0%
O=C(Nc1ccccc1N1CCCCC1)C1CCN(S(=O)(=O)c2cccc(C(F)(F)F)c2)CC1
    -24.8% | -18.5%
O=C(NCc1cccs1)c1cnc(Cl)c(Cl)c1
    i | 1.9%
CCOc1ccc(S(=O)(=O)N2CCC(C(=O)NC3CC3)CC2)cc1Cl
    i | -7.1%
COc1ccc(-c2noc(N3CCC(C(=O)Nc4ccc(C)c(F)c4)CC3)n2)cc1OC
    -20.9% | -12.4%
Cc1ccc(S(=O)(=O)N2CCN(C(=O)CCOc3ccccc3C)CC2)cc1C
    -5.4% | -25.4%
O=C(c1ccccc1F)N(NC(=O)C(O)(c1ccccc1)c1ccccc1)c1ccccc1
    ? | -26.0%
CCOC(=O)Cn1c(=O)oc2cc(S(=O)(=O)N3CCN(c4ccccc4OC)CC3)ccc21
    2.6% | -7.7%
CCCn1nc(NC(=O)c2cccs2)c2cc3cc(OC)ccc3nc21
    ? | -10.9%
C/C(CC(=O)NC1CCCCC1)=N\NC(=O)c1ccccc1C
    15.5% | 3.8%
Cc1cnc(C(=O)OCC(=O)Nc2ccc3c(c2)OCCO3)cn1
    i | 5.4%
Cc1ccc2nsnc2c1NC(=O)CCc1ccccc1
    -4.2% | 1.6%
CC(=O)NC(C1C(=O)CC(C)(C)CC1=O)(C(F)(F)F)C(F)(F)F
    -14.3% | 2.3%
O=C1N(Cc2cccc(Cl)c2)C[C@@H]2C[C@@H](c3ccsc3)N3CCC[C@@]123
    -8.5% | 7.8%
CC(C)COc1ccc(C(=O)Nc2scc(-c3ccc(Br)cc3)c2C(=O)OC(C)C)cc1
    -10.3% | -4.7%
CC(C)S(=O)(=O)N1CCN(c2nc(-c3cccs3)nc3ccccc23)CC1
    -13.1% | -5.0%
O=C(CCC(=O)Nc1ccc(Cl)cc1)N/N=C/c1ccc2c(c1)OCO2
    -4.2% | -7.2%
Brc1ccc(-n2cccc2/C=N/n2cnnc2)cc1
    nt | -14.9%
COc1cc([C@@H]2CC=C(C(=O)O)[C@H](c3ccccc3)N2S(=O)(=O)c2ccc(C)cc2)cc(OC)c1OC
    i | -10.5%
CCn1nc(C)c(/C=N/NC(=O)Cn2nccc2C)c1C
    -8.2% | -9.2%
Cc1cc(=O)oc2cc(OC(C)C(=O)NCCCN3CCCC3=O)c(Cl)cc12 (stereo not given)
    i | -7.7%
Cc1csc(=O)n1CCC(=O)OCC(=O)Nc1cc(Cl)ccc1[N+](=O)[O-]
    -15.9% | -16.6%
CN(CCOCCOc1ccc2ccccc2c1)Cc1ccccc1
    -14.7% | ?
COC(=O)c1ccc(CSCc2ccc(C(=O)OC)o2)o1
    -20.8% | -9.6%
O=C1CN(C(=O)NCC(=O)N[C@@H](Cc2ccccc2)C(=O)O)c2ccccc2N1
    i | 8.1%
CSc1nc(N)c(C(=O)NC2CCCCC2)s1
    -10.5% | -27.0%
COc1cccc(NC(=O)C2C3C=CC4(O3)C2C(=O)N(C(C)C)C4C(=O)NC2CCCCC2C)c1 (stereo not given)
    -13.7% | -6.3%
O=c1[nH]c(=O)n([C@H]2C[C@H](O)[C@@H](CO)O2)cc1I
    -27.6% | ?
c1ccc(C(c2c[nH]c3ccccc23)c2c[nH]c3ccccc23)nc1
    nt | ?
O=C(c1cccs1)N1CCN(Cc2nc(-c3ccccc3)no2)CC1
    -12.0% | -13.9%
CCOC(=O)c1c(Nc2ccc(C)c(C)c2)nnc(-c2ccccc2)c1-c1ccccc1
    5.2% | 3.0%
Nc1cc(=O)[nH]c2c1CCC2
    -3.5% | -15.6%
CCCCCCCCCCCCCCCCCCN(CCCCCCCCCCCCCCCCCC)c1ccc(C=O)cc1
    -14.1% | -10.0%
CC(C)CN(C(=O)COC(=O)c1cccnc1Cl)c1c(N)n(Cc2ccccc2)c(=O)[nH]c1=O
    -14.9% | -10.3%
